Screens deposited in PubChem by Broad Institute.
YB-1 expr inh – inhibitors of YB-1 gene expression, primary screen, cell-based, fluorescence; U2OS, qRT-PCR YB-1 vs CDIP delta delta Cp, 16 h; hits give high values; zero = DMSO, each unit about twofold; AID 434959, 2010; 30,000 tested, 0.37% active; delta delta Cp (YB-1 minus CDIP) (no concentration beside the values);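 active = delta delta Cp rounded down to an integer at or above 3, about 3 SD of DMSO wells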;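 also: higher means less YB-1 transcript or more CDIP transcript relative to DMSO; stock transfer was 100 nL into about 100 µL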
An asterisk follows results filed as active. An excerpt (hit frequency here may not be typical).

SMILES | YB-1 expr inh
O=C(NCc1ccccc1)[C@]1(Cc2ccccc2)N=C(c2ccc(OCCCO)cc2)O[C@@H]1c1ccccc1 | 0.68
C[C@H](CO)N1C[C@H](C)[C@H](CN(C)C(=O)NC2CCCCC2)Oc2ncc(C#CCN(C)C)cc2C1=O | 0.24
O=C(NN=C1CCCCCCC1)c1ccccc1O | -0.078
O=C(N/N=C/c1ccc2c(c1)OCCO2)c1ccccc1O | -0.15
COC(=O)CCCCCCC(=O)N/N=C/c1c(Cl)cc(OC)c(OC)c1Cl | -0.012
O=C(NO)c1cccc(C(=O)N/N=C/c2ccc(-n3ccnc3)cc2)c1 | -0.011
COc1ccc([Si](C)(C)[C@H]2[C@H](CCO)O[C@@]3(C(=O)N(Cc4ccccc4)c4ccc(N5CCOC5=O)cc43)[C@@H]2C)cc1 | 0.027
C[C@@H]1CN([C@H](C)CO)C(=O)CCCn2cc(nn2)CO[C@H]1CN(C)Cc1cccc(C(=O)O)c1 | 0.35
O=C1O[C@H](c2ccccc2)[C@H](c2ccccc2)N2[C@H]1[C@@H](C(=O)N1CCCCCCC1)[C@]1(C(=O)Nc3ccc(C#CC4=CCCCC4)cc31)[C@H]2c1ccc(O)cc1 | -0.11
Cc1ccc(S(=O)(=O)N(C)C[C@@H]2OCc3cn(nn3)CCCC(=O)N([C@@H](C)CO)C[C@@H]2C)cc1 | -0.47
C[C@H](CO)N1C[C@H](C)[C@H](CN(C)C(=O)Cc2ccccc2)OCc2cnnn2CCCC1=O | 0.34
C[C@@H]1CN([C@H](C)CO)C(=O)CCCn2nncc2CO[C@@H]1CN(C)S(=O)(=O)c1ccc(-n2cccn2)cc1 | 0.15
O=C1O[C@H](c2ccccc2)[C@H](c2ccccc2)N2[C@H]1[C@@H](C(=O)NC[C@H](O)c1ccccc1)[C@]1(C(=O)Nc3ccccc31)[C@H]2c1ccccc1OCCO | 0.24
COC(=O)C(CC#Cc1ccc2c(c1)[C@]1(C(=O)N2)[C@H](c2ccccc2OCCO)N2[C@H](c3ccccc3)[C@H](c3ccccc3)OC(=O)[C@H]2[C@@H]1C(=O)NC[C@H](O)c1ccccc1)C(=O)OC | -0.0048
C[C@H](CO)N1C[C@H](C)[C@H](CN(C)Cc2cccc(C(=O)O)c2)OCc2cn(nn2)CCCC1=O | -0.21
COC(=O)CCCCCCC(=O)N/N=C/c1ccc(N2CCCC2)cc1 | -0.11
C[C@@H]1CN([C@H](C)CO)C(=O)CCCn2cc(nn2)CO[C@@H]1CN(C)C(=O)NC1CCCCC1 | -0.07
Cc1cccc(S(=O)(=O)N(C)C[C@@H]2OCc3cnnn3CCCC(=O)N([C@@H](C)CO)C[C@@H]2C)c1 | -0.41
C[C@H](CO)N1C[C@H](C)[C@H](CN(C)C(=O)Nc2ccc3c(c2)OCO3)Oc2ncc(C#Cc3ccc(F)cc3)cc2C1=O | 0.05
CNC[C@@H]1Oc2ncc(-c3ccc(F)cc3)cc2C(=O)N([C@H](C)CO)C[C@@H]1C | -0.15
CNC(=O)C1=C[C@H](c2ccc(C(=O)OC)cc2)C[C@H](OCCCCO)O1 | -0.84
CC1=C(C/C=N/NC(=O)c2ccccc2O)C(C)(C)CCC1 | 0.18
O=C1O[C@H](c2ccccc2)[C@H](c2ccccc2)N2[C@H]1[C@@H](C(=O)O)[C@]1(C(=O)Nc3ccc(C#CC4(O)CCCCCC4)cc31)[C@H]2c1ccccc1OCCO | -0.011
Cc1ncc(CO)c(/C=N/NC(=O)CCCCCCC(=O)Nc2ccccc2O)c1O | -0.48
O=S(=O)(N[C@H]1CCN(Cc2cccc(OCCO)c2)C1)c1cccc2cccnc12 | -0.34

Additional structures.
SMILES | YB-1 expr inh
O=C(CCCCC(=O)N/N=C/c1ccc(-c2cccc(Cl)c2)o1)NO | -0.42
C[C@@H]1CN([C@H](C)CO)C(=O)CCCn2cc(nn2)CO[C@H]1CN(C)Cc1cccc2c1OCCCO2 | -0.0046
CC1(C)[C@H]2CC=C(/C=N\NC(=O)CCCCCCC(=O)Nc3ccccc3O)[C@@H]1C2 | -0.12
C[C@@H]1CN([C@@H](C)CO)C(=O)CCCn2nncc2CO[C@@H]1CN(C)S(=O)(=O)c1cccc(F)c1 | -0.056
COc1ccc(C#Cc2ccc3c(c2)[C@]2(C(=O)N3)[C@H](C(=O)N3CCN(c4ncccn4)CC3)[C@H]3C(=O)O[C@H](c4ccccc4)[C@H](c4ccccc4)N3[C@@H]2c2ccc(OCCO)cc2)cc1 | -0.13
COC(=O)CCCCCCC(=O)N/N=C/c1ccc([N+](=O)[O-])s1 | 0.22
O=C(N/N=C/c1ccc(OCCO)cc1)c1ccccc1O | -0.062
C=CCN1C(=O)[C@@]2(O[C@@H](CCO)[C@H]([Si](C)(C)c3ccc(OC)cc3)[C@H]2C)c2cc(NC(C)=O)ccc21 | -0.25
O=C(CCCCCCC(=O)Nc1ccccc1O)N/N=C/c1cc(F)ccc1O | 0.17
Cc1ccc(S(=O)(=O)N(C)C[C@H]2OCc3cn(nn3)CCCC(=O)N([C@@H](C)CO)C[C@H]2C)cc1 | -0.17
C[C@H]1CN([C@@H](C)CO)C(=O)CCCn2cc(nn2)CO[C@H]1CN(C)CC1CCCCC1 | 0.25
COCCOC(=O)N1C(=O)[C@@]2(c3cc(C#CC4(O)CCCCCC4)ccc31)[C@H](C(N)=O)[C@H]1C(=O)O[C@H](c3ccccc3)[C@H](c3ccccc3)N1[C@@H]2c1ccc(OCCO)cc1 | 0.61
O=C(C1=C[C@H](c2ccc3c(c2)Cc2ccccc2-3)C[C@H](OCCCCO)O1)N1CCCCC1 | 0.24
COc1cc(/C=N/NC(=O)c2ccccn2)c([N+](=O)[O-])cc1OC | 0.13
O=C(CCCCCC(=O)Nc1ccccc1O)N/N=C/c1ccc(Br)o1 | -0.098
C[C@H](CO)N1C[C@H](C)[C@H](CN(C)C(=O)Nc2ccccc2)Oc2ncc(-c3cccc(F)c3)cc2C1=O | 0.23
C[C@@H]1CN([C@H](C)CO)C(=O)CCCn2nncc2CO[C@H]1CN(C)Cc1ccncc1 | 0.062
C[C@H](CO)N1C[C@H](C)[C@H](CN(C)S(=O)(=O)c2ccc(C#N)cc2)Oc2ncc(C#Cc3ccccc3)cc2C1=O | 0.18
O=C(N/N=C/c1ccc[nH]1)c1ccccn1 | 0.32
C[C@H](CO)N1C[C@H](C)[C@H](CN(C)C(=O)Nc2ccc(C(F)(F)F)cc2)OCc2cn(nn2)CCCC1=O | -0.21
C=CCNC(=O)[C@H]1[C@@H]2C(=O)O[C@@H](c3ccccc3)[C@@H](c3ccccc3)N2[C@@H](c2ccc(OCCO)cc2)[C@]12C(=O)Nc1ccc(C#Cc3ccc(OC)cc3)cc12 | -0.45
O=C1O[C@H](c2ccccc2)[C@H](c2ccccc2)N2[C@H]1[C@@H](C(=O)N1CCCCCCC1)[C@]1(C(=O)Nc3ccc(C#CC4=CCCCC4)cc31)[C@H]2c1ccccc1OCCO | -0.18
O=C(CCCCCCC(=O)Nc1ccccc1O)N/N=C/c1ccc(O)c(O)c1 | -0.12
C[C@@H]1CN([C@H](C)CO)C(=O)CCCn2nncc2CO[C@@H]1CN(C)S(=O)(=O)c1ccccc1F | 0.52
C[C@@H]1CN([C@@H](C)CO)C(=O)CCCn2nncc2CO[C@H]1CN(C)Cc1ccc2c(c1)OCCN2C | -2.2

In the list so far, these contain a nitro group on carbon:
SMILES | YB-1 expr inh
COC(=O)CCCCCCC(=O)N/N=C/c1ccc([N+](=O)[O-])s1 | 0.22
COc1cc(/C=N/NC(=O)c2ccccn2)c([N+](=O)[O-])cc1OC | 0.13

Following part:
SMILES | YB-1 expr inh
C[C@@H]1CN([C@H](C)CO)C(=O)CCCn2nncc2CO[C@@H]1CN(C)Cc1ccc(Oc2ccccc2)cc1 | 0.24
COc1ccc(/C=N/NC(=O)CCCCCCC(=O)Nc2ccccc2O)cc1 | 0.21
Cc1nc(S(=O)(=O)NCC2CCN(Cc3ccc(OCCO)cc3)CC2)cn1C | 0.33
COc1ccccc1CN(C)C[C@@H]1OCc2cn(nn2)CCCC(=O)N([C@@H](C)CO)C[C@@H]1C | -0.35
O=C1O[C@H](c2ccccc2)[C@H](c2ccccc2)N2[C@H]1[C@@H](C(=O)O)[C@]1(C(=O)Nc3ccccc31)[C@H]2c1ccc(O)cc1 | 0.28
O=C(CCCCC(=O)N/N=C/CCC1CCCCC1)NO | 0.12
CCCC(O)C#Cc1cnc2c(c1)C(=O)N([C@H](C)CO)C[C@H](C)[C@H](CN(C)C(=O)Nc1c(C)noc1C)O2 (stereo partly specified) | 0.29
COc1cc2c(cc1O)C=[N+](Cc1cc3c(cc1Br)OCO3)CC2 | 0.3
C[C@@H]1CN([C@H](C)CO)C(=O)CCCn2nncc2CO[C@H]1CN(C)C(=O)c1cc(-c2ccccc2)on1 | -0.32
CC(C)NC(=O)N(C)C[C@@H]1Oc2ncc(-c3cccc(F)c3)cc2C(=O)N([C@H](C)CO)C[C@@H]1C | -0.19
O=S(=O)(N[C@@H]1CCN(Cc2ccc(OCCO)cc2)C1)c1cc(Cl)ccc1Cl | 0.28
Cc1ccccc1S(=O)(=O)N[C@H]1CCN(Cc2cccc(OCCO)c2)C1 | -0.31
CC(C)COC(=O)N(C)C[C@@H]1OCc2cn(nn2)CCCC(=O)N([C@@H](C)CO)C[C@@H]1C | -0.015
C[C@@H]1CN([C@@H](C)CO)C(=O)CCCn2nncc2CO[C@@H]1CN(C)C(=O)Cc1ccccc1 | 0.033
COc1ccc(C#Cc2ccc3c(c2)[C@]2(C(=O)N3)[C@H](c3ccc(O)cc3)N3[C@H](c4ccccc4)[C@H](c4ccccc4)OC(=O)[C@H]3[C@@H]2C(=O)O)cc1 | -0.24
O=C(N/N=C/c1cccc(Oc2ccccc2)c1)c1ccccc1O | -0.35
Cc1ccccc1S(=O)(=O)N(C)C[C@H]1OCc2cn(nn2)CCCC(=O)N([C@@H](C)CO)C[C@H]1C | -0.32
C[C@@H]1CN([C@H](C)CO)C(=O)CCCn2nncc2CO[C@H]1CN(C)Cc1cccc(C(F)(F)F)c1 | -0.36
C[C@@H]1CN([C@H](C)CO)C(=O)CCCn2cc(nn2)CO[C@H]1CN(C)Cc1ccc(C(F)(F)F)cc1 | 0.026
C#CCOc1ccc(/C=N/NC(=O)c2ccccc2O)cc1 | 0.22
O=C1C[C@@](C(=O)NCc2ccccc2)(c2ccc([N+](=O)[O-])cc2)[C@@H](c2ccc(CO)cc2)N1C1CCCCC1 | 0.57
C[C@@H]1CN([C@@H](C)CO)C(=O)CCCn2nncc2CO[C@@H]1CN(C)C(=O)Nc1ccc2c(c1)OCCO2 | -0.13
O=C(O)CCCCCCC(=O)N/N=C/c1ccc2ccccc2n1 | -0.32
O=C1O[C@@H](c2ccccc2)[C@@H](c2ccccc2)N2[C@@H](c3ccccc3OCCO)[C@]3(C(=O)Nc4ccc(C#CCCO)cc43)[C@@H](C(=O)N3CCCCCCC3)[C@H]12 | -0.11
COc1ccc([C@H]2C=C(C(=O)O)O[C@@H](OCCCCO)C2)cc1 | -0.23

Sorted by molecular weight (highest first): some entries from above
SMILES | YB-1 expr inh
CCCC(O)C#Cc1cnc2c(c1)C(=O)N([C@H](C)CO)C[C@H](C)[C@H](CN(C)C(=O)Nc1c(C)noc1C)O2 (stereo partly specified) | 0.29
C[C@@H]1CN([C@H](C)CO)C(=O)CCCn2nncc2CO[C@H]1CN(C)C(=O)c1cc(-c2ccccc2)on1 | -0.32
COc1ccccc1CN(C)C[C@@H]1OCc2cn(nn2)CCCC(=O)N([C@@H](C)CO)C[C@@H]1C | -0.35
C[C@@H]1CN([C@@H](C)CO)C(=O)CCCn2nncc2CO[C@@H]1CN(C)C(=O)Cc1ccccc1 | 0.033
O=S(=O)(N[C@@H]1CCN(Cc2ccc(OCCO)cc2)C1)c1cc(Cl)ccc1Cl | 0.28
O=C(N/N=C/c1cccc(Oc2ccccc2)c1)c1ccccc1O | -0.35

The list goes on:
SMILES | YB-1 expr inh
O=C(NO)c1ccc(C(=O)N/N=C/c2ccc(-n3ccnc3)cc2)cc1 | -0.1
O=C(N/N=C/[C@H](O)[C@H](O)[C@@H](O)[C@@H](O)CO)c1ccccc1O | 0.11
Cn1cc(/C=N/NC(=O)c2ccccn2)c2ccccc21 | -0.36
C[C@H]1CN([C@@H](C)CO)C(=O)CCCn2nncc2CO[C@H]1CN(C)Cc1ccc2cccnc2c1 | -0.081
C[C@@H]1CN([C@@H](C)CO)C(=O)CCCn2nncc2CO[C@H]1CN(C)C(=O)Nc1ccc(C(C)(C)C)cc1 | 0.058
C[C@@H]1CN([C@@H](C)CO)C(=O)CCCn2nncc2CO[C@H]1CN(C)C(=O)Nc1cccc(C(F)(F)F)c1 | -0.18
O=C(N/N=C/c1ccoc1)c1ccccn1 | -0.41
COc1cccc(S(=O)(=O)N(C)C[C@@H]2OCc3cnnn3CCCC(=O)N([C@@H](C)CO)C[C@H]2C)c1 | 0.091
O=C(CCCCCCC(=O)Nc1ccccc1O)N/N=C/[C@H](O)[C@@H](O)[C@H](O)[C@H](O)CO | -0.027
C=CCN1C(=O)[C@]2(O[C@H](CCO)[C@@H]([Si](C)(C)c3ccc(OC)cc3)[C@@H]2C)c2cc(N3CCOC3=O)ccc21 | -0.065
COc1ccc(C#Cc2cnc3c(c2)C(=O)N([C@H](C)CO)C[C@H](C)[C@H](CN(C)S(=O)(=O)c2ccc(C)cc2)O3)cc1OC | 0.27
COC(=O)CCCCCCC(=O)N/N=C/c1ccc2ccccc2c1O | 0.13
C[C@@H]1CN([C@@H](C)CO)C(=O)CCCn2nncc2CO[C@@H]1CN(C)C(=O)c1ccc2ccn(C)c2c1 | -0.34
